Bioassay records deposited in PubChem BioAssay by National Center for Advancing Translational Sciences (NCATS).
2A Renilla = Primary qHTS Assay for Foot and Mouth Disease Virus Antivirals against NCGC Sytravon and CBC Compound Libraries: Renilla Luciferase Signal; HEK cells with a luciferase reporter of 2A StopGo recoding; Potency, µM (titrated, usually from 57.5 µM), for the others: at the top dose signal change, negative = less light; hit rate 0.32% among 120,000; AID 1745857, 2022; active means well fitted falling curve with a large enough effect; inconclusive means small, poorly fitted or top-dose-only effect; inactive means no such curve, though single readings can be large or run the other way; note: nearly all actives have a fitted effect of over 55% in size; overnight with compound
2A firefly = Primary qHTS Assay for Foot and Mouth Disease Virus Antivirals against NCGC Sytravon and CBC Compound Libraries: Firefly Luciferase Signal | HEK cells with a luciferase reporter of 2A StopGo recoding | Potency, µM (series often up to 57.5 µM), for inactives: top-dose signal change, negative = less light | hit rate 0.23% among 120,000 | AID 1745856, 2022; active = well fitted falling curve with a large enough effect; inconclusive = small, poorly fitted or top-dose-only effect; inactive = no such curve, though single readings can be large or run the other way; note: nearly all actives have a fitted effect of over 60% in size; overnight with compound
Active calls of the source: *; [ ] = remark or other dose. % is set by controls: 0 for no effect and ±100 for the full control effect; potency is the fitted concentration of half-maximal effect. This is a subset, so the mix of outcomes need not match the whole.

`Cc1ccc(S(=O)(=O)c2nc(-c3cccs3)oc2SC(C)C)cc1` gave 2A Renilla 163%[activator] and 2A firefly -19%.
O=C(CCNC(=O)N1CCN(C(=O)c2cc3ccccc3[nH]2)CC1)NCc1ccccn1 was read as 2A Renilla 7% and 2A firefly 16%.
Cc1ccc(NC(=O)c2cc(Cl)ccc2F)cc1 was read as 2A Renilla -2% and 2A firefly 201%[activator].
`Cc1ccc2c(Cl)c(C(=O)NC(C)c3ccncc3)sc2c1` (configuration not stated) gave 2A Renilla inconclusive and 2A firefly -25%.
Cc1cc(Cl)cc(C)c1OCC(=O)NCc1cccc(NC(=O)C2CC2)c1 was read as 2A Renilla 206%[activator] and 2A firefly 5%.
`COc1ccc(NC(=O)CSC2=Nc3ccccc3C3=NC(CCC(=O)NCCc4ccccc4)C(=O)N23)cc1` (configuration not stated) gave 2A Renilla -19% and 2A firefly -10%.
Screening Cn1c(=O)c2c(nc(N3CCN(c4ccccn4)CC3)n2Cc2cccc(Cl)c2)n(C)c1=O returned 2A Renilla -6% and 2A firefly -6%.
`Cc1cc(OS(C)(=O)=O)c2c3c(c(=O)oc2c1)CCCC3` gave 2A Renilla 6% and 2A firefly 8%.
For O=S(=O)(NCC(c1ccco1)S(=O)(=O)c1cccs1)c1ccc(Cl)cc1 (configuration not stated) the results were 2A Renilla -3% and 2A firefly -23%.
Screening CC(C(=O)NCc1cccnc1)N(c1ccc(Oc2ccccc2)cc1)S(C)(=O)=O (configuration not stated) returned 2A Renilla 15% and 2A firefly 13%.
`COc1cccc(NC(=O)CSC2=Nc3ccccc3N=C(c3ccc(F)cc3)C2)c1` gave 2A Renilla 7% and 2A firefly 65%[activator].
CC1CC(=O)Nc2ccccc2N1C(=O)CN(C)C(=O)c1cc(Cl)cc(Cl)c1 (configuration not stated) was read as 2A Renilla 0% and 2A firefly -1%.

Grouped by structure, the compounds so far containing fluorine (two)
Cc1ccc(NC(=O)c2cc(Cl)ccc2F)cc1 was read as 2A Renilla -2% and 2A firefly 201%[activator].
`COc1cccc(NC(=O)CSC2=Nc3ccccc3N=C(c3ccc(F)cc3)C2)c1` gave 2A Renilla 7% and 2A firefly 65%[activator].

Additional records follow:
For COc1ccc(CNCC#Cc2cccnc2)c(OC)c1 the results were 2A Renilla 9% and 2A firefly 1%.
`COc1cccc(C(=O)NCCNC(=O)c2cn(C)c3ccccc23)c1` gave 2A Renilla 0% and 2A firefly 0%.
`CN(Cc1ccccc1)C(=O)CSc1nnc(-c2cccc(Cl)c2)o1` gave 2A Renilla 0% and 2A firefly 31%[activator].
`CCOCCOC(=O)c1nc2ccccc2nc1Nc1ccc(C)cc1C` gave 2A Renilla 14% and 2A firefly 187%[activator].
Cn1c(SCc2coc(-c3cccs3)n2)nnc1C1CC1 was read as 2A Renilla 0% and 2A firefly 38%[activator].
For COCCCNC(=O)c1ccc2c(c1)N=C(C)c1c(C)ccc(C)c1S2 the results were 2A Renilla -10% and 2A firefly -17%.
`Cc1[nH]c2ccccc2c1C1c2ccccc2C(=O)N1CCC(=O)N1CCN(c2ccccc2)CC1` (configuration not stated) gave 2A Renilla 50%[activator] and 2A firefly -19%.
For COc1cccc(COC(=O)c2ccc(-c3nnn(Cc4cccc(OC)c4)n3)cc2)c1 the results were 2A Renilla 6% and 2A firefly -12%.
For CCC(=O)c1ccc(OC(=O)c2cc(Br)ccc2Cl)cc1 the results were 2A Renilla 5% and 2A firefly 17%.
COCCCNc1ncnc2c1nnn2C was read as 2A Renilla 6% and 2A firefly 10%.
Screening C[C@]12C[C@H](O)[C@H]3[C@@H](CCC4=CC(=O)CC[C@@]43C)[C@@H]1CC[C@@H]2C(=O)CO returned 2A Renilla 13% and 2A firefly -2%.
`Cc1ccc2oc(C(=O)N3CCN(c4cccc(Cl)c4)CC3)cc(=O)c2c1` gave 2A Renilla inconclusive and 2A firefly inconclusive.

6 compounds picked at random from the list so far, as already listed:
COCCCNc1ncnc2c1nnn2C was read as 2A Renilla 6% and 2A firefly 10%.
`CCOCCOC(=O)c1nc2ccccc2nc1Nc1ccc(C)cc1C` gave 2A Renilla 14% and 2A firefly 187%[activator].
`Cc1[nH]c2ccccc2c1C1c2ccccc2C(=O)N1CCC(=O)N1CCN(c2ccccc2)CC1` (configuration not stated) gave 2A Renilla 50%[activator] and 2A firefly -19%.
Cn1c(SCc2coc(-c3cccs3)n2)nnc1C1CC1 was read as 2A Renilla 0% and 2A firefly 38%[activator].
`COc1cccc(C(=O)NCCNC(=O)c2cn(C)c3ccccc23)c1` gave 2A Renilla 0% and 2A firefly 0%.
`Cc1ccc2oc(C(=O)N3CCN(c4cccc(Cl)c4)CC3)cc(=O)c2c1` gave 2A Renilla inconclusive and 2A firefly inconclusive.

(cont.)
Screening O=C(NCc1ccccc1Cl)c1ccc(Cn2c(=O)c3cccn3c3cccnc32)cc1 returned 2A Renilla -7% and 2A firefly 25%.
`COC(=O)C(O)(c1ccc(N(C)C(=O)O/N=C(/C)Cl)cc1)C(F)(F)F` (configuration not stated) gave 2A Renilla 45%[activator] and 2A firefly 67%[activator].
`CC(C)c1ccc(NC(=O)c2ccc3c(Cl)c4c(nc3c2)CCCC4)cc1` gave 2A Renilla inconclusive and 2A firefly inconclusive.
`Cn1cc(C(=O)N2CCN(S(=O)(=O)c3ccccc3)CC2)c2ccccc21` gave 2A Renilla 3% and 2A firefly -14%.
Cc1ccc(N2/C(=N/c3nc(C)cc(C)n3)NC(=O)CC2C(=O)O)cc1 (configuration not stated) was read as 2A Renilla 0% and 2A firefly 15%.
`COc1ccc(OC)c2[nH]c(C(=O)NCC(=O)N3CCN(Cc4ccccc4)CC3)cc12` gave 2A Renilla -16% and 2A firefly -12%.
C=CCOC(=O)COc1cc(C)cc2oc(=O)cc(-c3ccccc3)c12 was read as 2A Renilla -2% and 2A firefly 1%.
`COc1ccccc1OCCn1cc(C(=O)c2cccs2)c2ccccc21` gave 2A Renilla inconclusive and 2A firefly -23%.
`Cc1ccc(N)c(OCC(F)(F)F)c1` gave 2A Renilla 1% and 2A firefly 2%.
`Brc1ccc(-c2cnc(-c3ccccc3)o2)cc1` gave 2A Renilla 5% and 2A firefly 223%[activator].
CC(=O)c1c(SCC(=O)Nc2ccc(F)c(F)c2)nc(=O)[nH]c1C was read as 2A Renilla -23% and 2A firefly -9%.
COc1cccc(-c2cc(C(=O)NCc3ccccc3)no2)c1 was read as 2A Renilla 32%[activator] and 2A firefly 138%[activator].

Ordered by formula weight (ascending): some entries from above
`Cc1ccc(N)c(OCC(F)(F)F)c1` gave 2A Renilla 1% and 2A firefly 2%.
`CC(C)c1ccc(NC(=O)c2ccc3c(Cl)c4c(nc3c2)CCCC4)cc1` gave 2A Renilla inconclusive and 2A firefly inconclusive.
`COc1ccc(OC)c2[nH]c(C(=O)NCC(=O)N3CCN(Cc4ccccc4)CC3)cc12` gave 2A Renilla -16% and 2A firefly -12%.

(further entries)
For CN1C(C(=O)Nc2ccc(OC(F)(F)F)cc2)=CC(c2ccc3c(c2)OCO3)=NS1(=O)=O the results were 2A Renilla -8% and 2A firefly -13%.
`Cc1ccc(NC(=O)CCn2cccn2)cc1Cl` gave 2A Renilla -7% and 2A firefly -1%.
For CC(C)OCCCNC(=O)Cn1ccc2cc(S(=O)(=O)N3CCCCCC3)ccc21 the results were 2A Renilla -10% and 2A firefly -8%.
For COc1ccc(/C=C(/C#N)c2nc3ccccc3[nH]2)cc1OC(F)F the results were 2A Renilla 216%[activator] and 2A firefly 95%[activator].
`O=C(NCc1cccc(F)c1)C1=Cc2cc(Br)ccc2OC1` gave 2A Renilla 84%[activator] and 2A firefly -5%.
Screening Cc1cc(C)cc(NC(=O)CSCc2cc(=O)c3ccc(C)c(C)c3[nH]2)c1 returned 2A Renilla 0% and 2A firefly -6%.
For CCCCCC/C(=N\NC(N)=O)c1ccccc1 the results were 2A Renilla -7% and 2A firefly 19%.
COc1ccc(CNC(=O)c2ccc3c(c2)NC(=O)CS3)cc1OC was read as 2A Renilla 8%[1.06 µM] and 2A firefly inconclusive.
Screening O=C(CCCn1c(=O)[nH]c2ccccc2c1=O)NCc1ccccc1Cl returned 2A Renilla -8% and 2A firefly 97%[activator].
Screening COCC(C)NC(=O)c1cc2cc(N(C)S(=O)(=O)c3ccc(Cl)cc3)ccc2s1 (configuration not stated) returned 2A Renilla 4% and 2A firefly 5%.
O=C(NC1CCCC1)C1(c2cccc(Cl)c2)CCC1 was read as 2A Renilla 0% and 2A firefly 0%.
Cc1cc(Cl)ccc1NS(=O)(=O)c1c(C(=O)N2CCCCCC2)c(C)n(C)c1C was read as 2A Renilla 217%[activator] and 2A firefly -19%.
Cc1cccc(NC(=O)C(C#N)C(=O)CC(C)(C)C)c1 (configuration not stated) was read as 2A Renilla inconclusive and 2A firefly -9%.
`COC(=O)c1ccc(NC(=O)c2nc(-c3ccc(Cl)cc3)n3c2CCCCC3)cc1` gave 2A Renilla 52%[activator] and 2A firefly 26%.
Cc1ccc(C(=O)NC(O)C(=O)c2ccc(Cl)cc2)cc1 (configuration not stated) was read as 2A Renilla 1% and 2A firefly 23%.
`Cc1ccc(S(=O)(=O)NC2CC2)cc1C(=O)Nc1cccc2c1CCCC2` gave 2A Renilla 53%[activator] and 2A firefly -22%.
Cc1nn(C)c(C)c1CC(=O)N1CCN(S(=O)(=O)c2c(C)c(C)c(C)c(C)c2C)CC1 was read as 2A Renilla inconclusive and 2A firefly inconclusive.
For COc1cc(OC)cc(C(=O)Nc2cccc(-c3cn4ccsc4n3)c2)c1 the results were 2A Renilla -3% and 2A firefly 0%.
For Cc1ccc(C)c(CN2C(=O)c3ccccc3S(=O)(=O)c3ccc(C(=O)N4CCCC4)cc32)c1 the results were 2A Renilla 88%[activator] and 2A firefly 22%.
Screening O=C(NCc1ccccc1Cl)c1ccc2c(c1)N(Cc1ccccc1)CCS2 returned 2A Renilla 106%[activator] and 2A firefly 2%.
`C=C(C)CC1(Nc2ccccc2C)CCCCC1` gave 2A Renilla 19% and 2A firefly 23%.
CCC1CCCCN1CCCNC(=O)c1ccc2c(c1)sc1nc(-c3ccc(F)cc3)cn12 (configuration not stated) was read as 2A Renilla -7% and 2A firefly 61%[activator].
For COc1cc(/C=C2/NC(=O)NC2=O)cc(I)c1OCc1cccc(C(=O)O)c1 the results were 2A Renilla 5% and 2A firefly 24%.
Screening O=C(c1ccc[nH]1)c1cc2cc(Br)ccc2o1 returned 2A Renilla 0% and 2A firefly 222%[activator].
For O=C(Nc1ccc(Br)cc1)C(Cc1ccccc1)NS(=O)(=O)c1cccc2nsnc12 (configuration not stated) the results were 2A Renilla 85%[activator] and 2A firefly -24%.
`Nc1nc(NCc2ccccc2Cl)c2[nH]cnc2n1` gave 2A Renilla 18% and 2A firefly 50%[activator].
For CC(NC(=O)CNC(=O)c1cccs1)c1ccc2ccccc2c1 (configuration not stated) the results were 2A Renilla 137%[activator] and 2A firefly 14%.
COc1ccc(OC)c(NC(=O)CN(c2ccccc2OC)S(=O)(=O)c2ccc(C)cc2)c1 was read as 2A Renilla 72%[activator] and 2A firefly 5%.
Cc1cnc(NC(=O)c2nn(Cc3ccccc3)c(=O)c3ccccc23)s1 was read as 2A Renilla 24% and 2A firefly 11%.
`COc1ccccc1Nc1nn2c(=O)c3ccc(C(=O)NCCCOC(C)C)cc3nc2s1` gave 2A Renilla -25% and 2A firefly inconclusive.
`O=S(=O)(NCC(c1cccnc1)S(=O)(=O)c1ccccc1)c1ccc(Cl)cc1` (configuration not stated) gave 2A Renilla 105%[activator] and 2A firefly -8%.
Screening CN(C)c1oc(-c2ccco2)nc1S(=O)(=O)c1ccc(F)cc1 returned 2A Renilla 13% and 2A firefly 6%.
For C/C(Cl)=C\CNCc1ccco1 the results were 2A Renilla -4% and 2A firefly -1%.
CCCc1cc(=O)[nH]c(Nc2cc(C)ccc2OC)n1 was read as 2A Renilla 5% and 2A firefly 1%.
For Cc1ccc(-n2nnnc2CNC(=O)C(C)C)cc1C the results were 2A Renilla -1% and 2A firefly -10%.
Screening Cc1cc(C)c2c(c1)C(=O)C(=O)N2CCOc1ccccc1 returned 2A Renilla 53%[activator] and 2A firefly 26%.
`Cc1ccc(NC(=O)c2cc(=O)c3ccc(C)c(C)c3o2)cc1` gave 2A Renilla 4% and 2A firefly 12%.
CCOC(=O)c1[nH]c(C)c(CCC(=O)Nc2ccc(C)cc2Cl)c1C was read as 2A Renilla -6% and 2A firefly -9%.
Screening CC(C)C(=O)NC(C)c1ccc(Cl)cc1Cl (configuration not stated) returned 2A Renilla 3% and 2A firefly 0%.
`Cc1cc(C)cc(N2CC(c3nc(-c4ccccc4)no3)CC2=O)c1` (configuration not stated) gave 2A Renilla 6% and 2A firefly 3%.
`CCc1ccc2oc(-c3cc(N)cc(C)c3O)nc2c1` gave 2A Renilla 31%[activator] and 2A firefly 249%[activator].
C#CCNC(=O)NC(CCC)c1ccccc1 (configuration not stated) was read as 2A Renilla -12% and 2A firefly -5%.
COc1ccc(OC)c(NS(=O)(=O)c2cc3c(cc2Cl)N(C(C)=O)CCO3)c1 was read as 2A Renilla 254%[activator] and 2A firefly 15%.
Screening COc1ccc(C(=O)c2cn(Cc3ccccc3OC)c3cc4c(cc3c2=O)OCO4)cc1 returned 2A Renilla -12% and 2A firefly -10%.
For COc1ccc(-c2nnn3c2nc(NCCc2ccc(OC)c(OC)c2)c2ccccc23)cc1 the results were 2A Renilla 11% and 2A firefly 52%[activator].
